# A647 autofl: qHTS Assay for Spectroscopic Profiling in A647 Spectral Region. max dye-equivalent concentration, M. Compound fluorescence, A647 channel (570/671 nm), Tris buffer. 59,000 tested, under 10 active; active means above 1 µM dye equivalent; inconclusive means 0.1 to 1 µM; inactive means 0.1 µM or less;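 further: values scaled relative to a standard on each plate; highest value over a series up to 38 µM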
#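 Each compound's intrinsic fluorescence at 570 nm excitation and 671 nm emission is measured across its concentration series in 100 mM Tris, pH 8.0, after 15 min at room temperature, and reported relative to an A647 curve.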
# TSHR ag: qHTS Assay for Agonists of the Thyroid Stimulating Hormone Receptor; HEK293-CNG-TSHR cells (CNG channel as cAMP sensor), membrane potential dye, cAMP; Potency, µM (top dose mostly 57.1 µM), without a hit: top-dose activation, actives largely listed as activators; 0.48% of 73,000 active; AID 926, 2007; active = well fitted activation curve of enough size with the parental cells flat; inconclusive = any curve in the parental cells; inactive = parental cells flat and receptor cells flat or falling; further: potency means the concentration at half of the fitted maximal effect; % of control where 0% means no effect; weak receptor curves with flat parental cells got no call and are not listed
# Target sequence (P16473 whole entry, looked up): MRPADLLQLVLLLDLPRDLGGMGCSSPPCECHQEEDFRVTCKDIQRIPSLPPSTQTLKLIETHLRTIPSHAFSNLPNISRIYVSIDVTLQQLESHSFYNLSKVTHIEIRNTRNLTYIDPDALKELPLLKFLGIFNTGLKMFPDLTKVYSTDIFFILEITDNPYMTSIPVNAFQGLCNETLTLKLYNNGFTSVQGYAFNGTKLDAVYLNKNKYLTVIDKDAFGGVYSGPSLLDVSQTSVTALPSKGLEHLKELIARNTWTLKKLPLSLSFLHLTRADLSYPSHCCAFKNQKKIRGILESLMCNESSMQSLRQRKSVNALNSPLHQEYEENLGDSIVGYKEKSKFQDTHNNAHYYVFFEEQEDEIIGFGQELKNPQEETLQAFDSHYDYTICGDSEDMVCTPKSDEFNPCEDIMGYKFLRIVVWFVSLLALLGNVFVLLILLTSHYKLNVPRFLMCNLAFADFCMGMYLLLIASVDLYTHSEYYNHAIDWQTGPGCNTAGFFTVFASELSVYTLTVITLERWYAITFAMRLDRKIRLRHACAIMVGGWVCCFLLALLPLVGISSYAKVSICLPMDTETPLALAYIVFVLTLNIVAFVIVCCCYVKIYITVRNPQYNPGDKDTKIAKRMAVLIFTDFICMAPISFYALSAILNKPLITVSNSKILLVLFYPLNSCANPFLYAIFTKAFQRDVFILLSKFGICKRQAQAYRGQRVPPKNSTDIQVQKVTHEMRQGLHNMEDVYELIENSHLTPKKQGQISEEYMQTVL
#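 HEK 293 cells stably expressing TSHR and a modified CNG channel, with CNG-only parental cells as counterscreen, were preloaded 60 min at room temperature with membrane potential dye containing 100 uM RO 20-1724. Compound exposure was 30 min, and depolarization was read as fluorescence at 590 nm.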
# Resorufin autofl: qHTS Assay for Spectroscopic Profiling in Resorufin Spectral Region; 0.04% of 59,000 active; max dye-equivalent concentration, M; Compound fluorescence, resorufin region 547/598 nm, buffer; stronger effect = higher value; AID 588, 2007; active = above 10 nM dye equivalent; inconclusive = 1 to 10 nM; inactive = 1 nM or less; a few of its hits are not listed in these tables; further: highest value over a series up to 38 µM
#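 Dye-equivalent concentration values derive from comparing each well's 547/598 nm fluorescence against resorufin standards included on every plate. Incubation was 15 min at room temperature in 100 mM Tris, pH 8.0.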
# AID923: qHTS Assay for Allosteric/Competitive Inhibitors of Caspase-1: Spectroscopic Profiling in AFC Spectral Region; compound fluorescence, AFC spectral region (405/520 nm); almost no hit is shown here; Potency, µM (titrated, usually from 57.5 µM), inactives show at the highest dose fluorescence increase, usual class: activators; 1.1% of 75,000 active; active means well fitted activation curve with a large enough effect; inconclusive means small, poorly fitted or top-dose-only effect;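 further: potency means the concentration at half of the fitted maximal effect; 0% is about no effect; scaled to a free AFC standard on each plate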
#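 Baseline compound fluorescence (AFC region, 405 nm ex/520 nm em) taken from the intercept of kinetic reads with 50 nM caspase-1 and 5 uM Ac-WEHD-AFC; normalized to an on-plate AFC standard curve; compounds titrated up to 57 uM.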
# A488 fluor: qHTS Assay for Spectroscopic Profiling in A488 Spectral Region | compound autofluorescence, A488 spectral region, dye equivalency; stronger effect = higher value | max dye equivalency, M | 0.1% of 59,000 active; active = above 10 nM dye equivalent; inconclusive = 1 to 10 nM; inactive = 1 nM or less; about half of its hits are not listed in these tables;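 further: highest value over a series up to 38 µM; compound alone in buffer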
#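 Intrinsic compound fluorescence is measured in 100 mM Tris buffer at pH 8.0 following 15 min incubation at room temperature. Intensities at 480 nm excitation/540 nm emission are calibrated to an on-plate A488 concentration series, giving dye-equivalent concentrations.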
# Starred values were filed as active, the others as inactive; i = inactive; ? = inconclusive; · = not tested or not shown; & = joins results of further samples; [ ] = another dose, or the depositor's remark. This is a subset (hit frequency here may not be typical).
SMILES,A647 autofl,TSHR ag,Resorufin autofl,AID923,A488 fluor
O=C(COC(=O)C1CCC1)NCc1ccccc1Cl,2.2e-09,-2.1%,i,-1.2%,i
O=C(COc1ccc(Cl)cc1Cl)Nc1ccc2nc3n(c(=O)c2c1)CCCC3,1.33e-08,22.1%,i,-1.6%,i
S=C(S)O[C@@H]1C[C@@H]2C[C@H]1[C@@H]1CCC[C@H]21,2e-09,?,i,-0.6%&-3.2%,i
COc1ccc(CN2CC(C(=O)NCCN3CCN(c4ccccc4F)CC3)CC2=O)cc1 (centres undefined),1e-09,5.8%,i,1.9%,i
Brc1cccc(-c2nnc3n2CCC3)c1,1e-09,-4.7%,i,2.6%,i
Cc1ccc(C(=O)C(C)OC(=O)C2CC(=O)N(C3CCCCC3)C2)cc1 (centres undefined),5.03e-08,7.0%,i,0.1%,i
CCCOc1ccc(C(=O)c2nc3c(n2O)CCCC3)cc1,1e-09,5.8%,i,0.0%,i
O=c1c2c(nc3c(-c4ccc(Cl)cc4)c[nH]n13)CCCC2,1.8e-09,-6.3%,i,1.4%,i
Cc1occc1-c1nnc(SCC(=O)N2CCOCC2)n1CCc1ccccc1,2.2e-09,21.0%,i,-0.3%,i
O=C(CN1CCc2ccccc21)NC(=O)NCc1ccco1,7.6e-09,-3.4%,i,-1.0%,i
Cc1cccc(-n2c(SCC(=O)NCc3ccco3)nnc2-c2ccco2)c1,1e-09,6.6%,i,-0.8%,i
CC1=NCC[N@@+]1(CCc1ccccc1)Cc1ccccc1,1e-09,3.3%[11.4 µM],i,3.9%[11.5 µM],i
O=C(NCCc1ccccc1)/C(=N\O)c1ccccc1,1e-09,·,i,·,i
CC(=O)Nc1ccccc1Sc1ccccc1,1e-09,-2.9%,i,2.1%,i
CC1(c2ccc3noc(-c4ccc(Cl)cc4)c3c2)OCCO1,1e-09,?,i,5.1%,i
Cc1cc2ccc(C)c(C)c2nc1SCC#N,7.4e-09,?,i,-1.6%,i
O=C(c1c(Cl)cccc1Cl)N1CCN(c2ccccn2)CC1,1.25e-08,10.2%,i,-0.1%,i
O=C(CN1C(=O)NC2(CCCc3ccccc32)C1=O)N1CCN(C(=O)c2ccco2)CC1 (centres undefined),3.4e-09,?,i,-0.5%,i
OCC1CCCN(Cc2ccc(-c3ccccc3)cc2)C1 (centres undefined),·,14.4%,·,2.8%,·
COc1ccccc1-c1cc(C(=O)NCc2ccc(Cl)cc2)no1,2.8e-09,-0.8%[11.4 µM],i,-0.5%,i
CCC(NC(=O)OC(C)(C)C)C(=O)Oc1ccc2c3c(c(=O)oc2c1)CCC3 (centres undefined),4.4e-09,?,i,15.1%,i
COc1ccc(Cc2nnc3c4cnn(C)c4ncn23)cc1,3.77e-08,12.2%,i,0.3%,i
OCCn1cnc2c(SCc3ccccc3)ncnc21,1e-09,3.0%[11.4 µM],i,3.2%[11.5 µM],i
O=C1CCCN1c1cc(Cl)ccc1Cl,3.4e-08,0.8%,i,-2.8%,i
CCN(CC)C(=O)c1ccc2c(c1)N(Cc1ccccc1)C(=O)CS2=O (centres undefined),·,13.4%,·,0.0%,·
COc1ccc(OC)c(N2C(=O)C(Cl)=C(N3CCOCC3)C2=O)c1,·,8.7%[11.4 µM],·,-5.9%,·
CN(CC(=O)N1CCc2ccccc2C1)S(=O)(=O)c1ccc2c(c1)c(=O)n(C)c(=O)n2C,·,-1.7%,·,5.3%,·
CCCNC(=O)OC[C@@H]1O[C@H](CCO/N=C(\C)CCN2CCCc3nc(C)c(C)cc32)C=C[C@@H]1Oc1ccc(OC)cc1,·,2.1%[11.4 µM],·,0.0%[11.5 µM],·
O=C(Nc1cccc(F)c1)C1CCCN1S(=O)(=O)c1cccc2cccnc12 (centres undefined),·,13.6%,·,-1.9%,·
O=C(OCN1C(=O)c2ccccc2C1=O)c1ccccc1,3e-09,10.9%,i,-0.1%,i
COc1cc(C(=O)Nc2ccc(N(C)C)cc2)cc(OC)c1OC,·,-10.9%,·,1.5%,·
CCc1ccc(C(=O)Nc2ccc(S(=O)(=O)Nc3nc(C)cc(C)n3)cc2)o1,2.97e-08,0.6%,i,-1.7%,i
O=C(O)[C@@H]1[C@@H]2O[C@H]([C@@H](Br)[C@H]2Br)[C@H]1C(=O)O,1e-09,?,i,-0.8%[11.5 µM],i
CCOc1cc2c(cc1OCC)C(C(=O)O)C(c1cc(Br)c(O)c(OC)c1)N(C)C2=O (centres undefined),9.4e-09,6.1%[11.4 µM],i,-0.4%,i
C[C@@]1(C(=O)O)CCC[C@@H]1C(=O)O,1e-09,-2.7%[11.4 µM],i,3.9%[11.5 µM],i
CCOC(=O)C1=C(CN2CCOCC2)NC(=O)NC1c1cc(C)ccc1C (centres undefined),1.49e-08,·,i,-0.7%,i
N=c1sccn1CC(=O)Nc1ccccc1Cc1ccccc1,1.48e-08,2.0%,i,-0.7%,i
Cc1ccc(S(=O)(=O)N(Cc2cc3cc4c(cc3[nH]c2=O)OCCO4)CC2CCCO2)cc1 (centres undefined),1e-09,3.5%,i,2.5%,i
Cc1ccc(-c2ccc(/C=N/c3ncn[nH]3)o2)cc1Cl,1e-09,·,i,·,i
CC(C)CC(c1nnnn1CCc1ccccc1)N1CCN(C(=O)c2ccco2)CC1 (centres undefined),5.48e-08,12.8%,i,-1.6%,i
Cc1nc2ccccc2c2c1C(=O)N(C)C2=O,2e-09,-7.5%,i,3.1%,i
COc1ccccc1N1CCN(C(=O)C2c3ccccc3Oc3ccccc32)CC1,2.89e-08,?,i,-0.3%,i
CC(C)(C)c1[nH]nc2c1C(c1cccnc1)C(C#N)=C(N)O2 (centres undefined),·,2.6%,·,4.3%,·
COc1ccccc1NC(=O)C(CCS(C)(=O)=O)N1C(=O)c2ccccc2C1=O (centres undefined),1e-09,11.9%,i,3.3%,i
COc1ccc(N2CCN(c3oc(-c4ccco4)nc3C#N)CC2)cc1,1e-09,29.3%,i,-0.1%,i
COc1ccc2c(CC(=O)OCC(=O)N3CCc4ccccc43)coc2c1,5.5e-09,14.3%,i,0.2%,i
Cc1nn(-c2ccc(F)cc2)c2sc(C(=O)O)cc12,1.18e-08,9.4%,i,1.2%,i
CSCC[C@@H]1NC(=O)C/C=C\[C@@H](C)COC(=O)[C@@H](C)COC1=O,·,2.8%[11.4 µM],·,-2.2%[11.5 µM],·
COc1cccc(-c2nc(NC3CCNCC3)c3ccccc3n2)c1,5.3e-09,?,i,1.7%,i
O=C(CN1CCCCC1)Nc1cccc(Br)c1,3.75e-08,3.6%,i,0.7%,i
COc1ccc(OCCn2c(=N)n(CCO)c3ccccc32)cc1,1e-09,6.1%,i,0.1%,i
Cc1cc(C)c2c(n1)nn1c(N3CCN(c4ccccc4)CC3)cc(C)nc21,3.19e-08,·,i,4.8%,i
CC(=O)c1ccc(OC(=O)c2cccs2)cc1,·,-1.0%,·,2.1%,·
COCCn1c(SCC(=O)NCc2cccs2)nnc1-c1ccc(OC)cc1,1e-09,?,i,1.6%,i
COC(=O)C1=C(CN2CCN(C)CC2)NC(=O)NC1c1cc(C)ccc1C (centres undefined),3.61e-08,5.6%,i,1.9%,i
CS(=O)(=O)N1CCC2(CC1)CN(Cc1cc(C(F)(F)F)cc(C(F)(F)F)c1)C2,1.04e-08,13.0%,i,-1.2%,i
COC(=O)[C@H](C)NC(=O)Nc1cc(OC)ccc1OC,1.28e-08,11.1%,i,-0.3%,i
NS(=O)(=O)c1ccc(NC(=O)CN2CCCCC2)cc1,2.8e-09,1.1%,i,-0.8%,i
N=c1c2c(-c3ccccc3)c(-c3ccccc3)n(Cc3ccccc3)c2ncn1CCCn1ccnc1,7.3e-09,·,i,·,i
O=C(OCC(=O)N1CCN(C(=O)c2ccco2)CC1)c1ccccc1Cc1ccccc1,7.2e-09,9.7%,i,-1.5%,i

# Single records, as listed above. Order of values: A647 autofl | TSHR ag | Resorufin autofl | AID923 | A488 fluor
# `CCC(NC(=O)OC(C)(C)C)C(=O)Oc1ccc2c3c(c(=O)oc2c1)CCC3` (centres undefined) is listed as 4.4e-09 | ? | i | 15.1% | i
# `CC(=O)c1ccc(OC(=O)c2cccs2)cc1` is listed as · | -1.0% | · | 2.1% | ·

# Next results:
SMILES,A647 autofl,TSHR ag,Resorufin autofl,AID923,A488 fluor
COc1ccc(N2CCN(C(=O)CSc3ncnc4c3cnn4-c3ccccc3C)CC2)cc1,6.27e-08,12.8%,i,2.9%,i
CCN1CCN(C(=O)c2oc(=O)c3ccccc3c2-c2ccc(C)cc2)CC1,·,26.2%,·,-1.4%,·
O=C(CSc1nnc(-c2cccnc2)n1Cc1ccco1)NCc1ccc2c(c1)OCO2,3.54e-08,?,i,1.9%,i
CC1(C)Cc2cccc(OCC(=O)N3CCN(S(=O)(=O)c4ccc(F)cc4)CC3)c2O1,4.01e-08,1.7%,i,-2.0%,i
CC1CCc2cc(F)ccc2N1C(=O)CSc1nnc(-c2cccs2)n1C (centres undefined),1.38e-08,1.5%,i,-0.2%,i
CCc1nc(N2CCCC2C(=O)O)c2oc3ccccc3c2n1 (centres undefined),8.8e-09,-1.1%,i,-3.0%,i
CC(=O)OC[C@@H]1O[C@H](C/C=N\O[C@@H](C)CN2CCCCc3nc(C)c(C)cc32)C=C[C@@H]1OC(C)=O,·,?,·,2.6%[11.5 µM],·
Cc1ccc(NC(=O)C2C(=O)N(CCO)C3(C)CC2c2ccccc2O3)cc1 (centres undefined),4.5e-09,5.3%,i,1.0%,i
COc1ccccc1NC(=O)N(Cc1ccco1)Cc1cc2cccc(C)c2[nH]c1=O,1.91e-08,5.7%[11.4 µM],i,-0.5%,i
Nc1nnc(SCCOc2ccc(Br)cc2)s1,3.61e-08,0.4%,i,-0.9%,i
c1ccc(-n2ncc3c(NCc4ccccn4)ncnc32)cc1,5.4e-09,-8.7%,i,-1.3%,i
Cc1cc(C)c(OCC(=O)Nc2ccccc2N2CCOCC2)c(C)c1,6.8e-09,?,i,0.4%,i
O=C(CSc1nnc(CNc2ccc(Cl)cc2)o1)Nc1nc2c(s1)CCCC2,2.28e-08,-1.6%,i,0.0%,i
CCOc1ccc(C(CC(=O)O)NC(=O)c2ccco2)cc1OC (centres undefined),1e-09,-11.4%,i,-2.5%,i
O=C(CCCC(=O)N1CCCc2ccccc21)N1CCCc2ccccc21,·,28.0%,·,0.7%,·
CCOc1cc(C2c3c(oc4cc(C)c(Cl)cc4c3=O)C(=O)N2Cc2ccco2)ccc1O (centres undefined),4.7e-09,26.5%,i,0.7%,i
O=C(Nc1ccc(NC(=O)c2ccco2)nc1)c1cccnc1,5.64e-08,-1.4%,i,3.8%,i
CN(C)CC(O)COc1ccc(-c2ccc(C#N)cc2)cc1 (centres undefined),1.39e-08,·,i,·,i
CCCC(=O)Nc1nc2ccc(OC)cc2s1,·,?,·,2.7%,·
O=C(Nc1cc(Cl)ccc1O)C1CCCO1 (centres undefined),2.75e-08,-2.5%,i,-1.9%,i
OC[C@@H]1O[C@H](O)[C@@H](Cl)[C@H](O)[C@@H]1O,8.7e-09,-5.6%,i,-0.2%,i
CC(C)C1Oc2ccccc2N(CC(=O)NCCCN2C(C)CCCC2C)C1=O (centres undefined),1e-09,5.7%,i,0.7%,i

# A second format for three compounds above.
canonical_smiles	A647 autofl	TSHR ag	Resorufin autofl	AID923	A488 fluor
O=C(Nc1ccc(NC(=O)c2ccco2)nc1)c1cccnc1	5.64e-08	-1.4%	i	3.8%	i
CN(C)CC(O)COc1ccc(-c2ccc(C#N)cc2)cc1 (centres undefined)	1.39e-08	·	i	·	i
CCCC(=O)Nc1nc2ccc(OC)cc2s1	·	?	·	2.7%	·
